# From PubChem
# FGF22 binding: binders of recombinant human FGF22 by thermal shift | 340,000 tested, 1.5% active | SYPRO orange fluorescence; percent of sucrose octasulfate shift, DMSO zero | calls only at 9.99 µM;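 active = melting point raised past a set limit in the mean and every replicate; inconclusive = no clear call; three in four hits are not shown here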
# Target sequence (Q9HCT0 whole entry, looked up): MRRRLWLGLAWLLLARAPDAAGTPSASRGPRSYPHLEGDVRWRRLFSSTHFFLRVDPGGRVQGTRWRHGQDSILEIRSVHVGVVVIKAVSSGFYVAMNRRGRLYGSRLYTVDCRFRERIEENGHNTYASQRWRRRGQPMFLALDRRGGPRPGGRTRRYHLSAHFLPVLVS
# MLL AF4-AF9 inh: inhibitors of human MLL-AF4/AF9 interaction. P42568. 350,000 tested, 0.47% active. inhibition, % at 10 µM. AlphaScreen, biotin-AF4 peptide binding to FLAG-AF9;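 active = every replicate reaching a set inhibition limit, whatever the replicate mean, cut at about 25% in these data; inconclusive = mean inhibition reaches that limit but some replicates miss it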;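 note: 0% = plate neutral control median and 100% = total signal loss; the record names both 10 and 1 µM as test concentration; the first replicate is given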
# Target sequence (P42568 whole entry, looked up): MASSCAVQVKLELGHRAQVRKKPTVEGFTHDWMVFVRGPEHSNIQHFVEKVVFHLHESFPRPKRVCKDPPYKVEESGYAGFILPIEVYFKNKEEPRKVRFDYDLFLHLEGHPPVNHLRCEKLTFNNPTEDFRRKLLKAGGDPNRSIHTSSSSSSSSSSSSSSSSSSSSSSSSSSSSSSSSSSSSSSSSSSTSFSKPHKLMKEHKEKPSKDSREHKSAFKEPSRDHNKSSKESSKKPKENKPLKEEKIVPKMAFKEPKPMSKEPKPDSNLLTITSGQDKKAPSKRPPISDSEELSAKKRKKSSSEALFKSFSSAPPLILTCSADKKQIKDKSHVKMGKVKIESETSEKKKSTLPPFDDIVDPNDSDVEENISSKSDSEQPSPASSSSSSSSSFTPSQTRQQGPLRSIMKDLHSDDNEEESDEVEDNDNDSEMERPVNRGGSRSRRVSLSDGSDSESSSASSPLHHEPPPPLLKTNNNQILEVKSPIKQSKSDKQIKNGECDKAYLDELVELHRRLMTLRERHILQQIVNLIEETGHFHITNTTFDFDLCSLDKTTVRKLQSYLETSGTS
# E coli growth: E. coli growth inhibition; OD600 absorbance (test concentration not listed); 330,000 tested, 0.21% active; AID 1053175; Escherichia coli growth, OD600, 23 h; hits give low values;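 active = OD600 absorbance below the run mean of sample wells minus 3.6 SD, in any replicate, cut at about 0.56 in these data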;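 note: stock transfer was 300 nL into about 60 µL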
# Vif TR-FRET: HIV-1 Vif–A3G interaction blockers – biochemical, TR-FRET, GST-Vif 1-94, biotin-A3G peptide, dose response retest, primary screen (AID 1117319); 260,000 tested, 0.57% active; TR-FRET GST-Vif / biotin-A3G peptide binding; higher % means a stronger effect; test concentration not given here; strong numbers were not always called active; inhibition, %; hits with a dose series show IC50 in µM;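 active = above the screen mean plus three standard deviations and confirmed in dose response; inconclusive = results disagree or hit not tested in dose response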;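 note: Vif residues 1-94 fused to GST binding biotinylated APOBEC3G peptide 110-148; 0% = full assay without inhibitor and 100% = GST in place of GST-Vif; retest series ran down from 100 µM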
# RanGTP-Impb inh: inhibitors of RanGTP-importin-beta interaction, primary screen, biochemical, FRET, CFP-Ran, YFP-importin-beta, homogeneous | cell-free CFP-Ran/YFP-importin-beta FRET ratio | inhibition, % (concentration not given with the values) | 300,000 tested, 1.1% active | AID 2216;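 active = most replicates above 15%; inconclusive = exactly half above 15%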;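 note: 0% = DMSO wells and 100% = Ran loaded with GDP instead of GTP; wells of about 40 µL received 100 nL stock; the first replicate is given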
# HNF4A DNA FP: change in binding of human HNF4 alpha to DNA; HNF4a-FITC DNA binding, fluorescence polarization, 1 h; P41235; activity change, % at 10 µM; 360,000 tested, 0.3% active; in the data active = activity change above about 30%, passing the limit was not always enough;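 note: controls were the assay level and a saturating level of protein; the project sought stronger binding though the title names inhibitors; some compounds called inactive have numbers as strong as hits; positive values seem to mean higher polarization but the record does not say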
# UCH37 inh: blocks the human deubiquitinase UCH37; Q9Y5K5; purified proteasome/UCH37, Ub-AMC cleavage fluorescence; inhibition, % (concentration not given with the values); 330,000 tested, 0.33% active;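 active = mean of two replicates above 20%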;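 note: 0% = compound-free wells with enzyme and 100% = wells lacking proteasome; stock transfer was 100 nL into about 20 µL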
# Target sequence (Q9Y5K5 whole entry, looked up): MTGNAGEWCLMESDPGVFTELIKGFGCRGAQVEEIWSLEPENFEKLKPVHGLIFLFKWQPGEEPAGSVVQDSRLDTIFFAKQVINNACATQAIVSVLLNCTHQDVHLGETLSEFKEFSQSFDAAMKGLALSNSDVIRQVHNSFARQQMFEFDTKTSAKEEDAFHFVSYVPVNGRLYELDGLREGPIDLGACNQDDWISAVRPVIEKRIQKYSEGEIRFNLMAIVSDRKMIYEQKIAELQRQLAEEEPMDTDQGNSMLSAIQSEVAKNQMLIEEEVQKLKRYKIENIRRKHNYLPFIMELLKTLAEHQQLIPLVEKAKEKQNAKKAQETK
#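 Reagent: Ub-AMC substrate; assay system: Proteasome-associated human UCH37 deubiquitinase; controls: no-proteasome and no-compound wells; read-out: % inhibition of Ub-AMC cleavage fluorescence; timing: 30 min preincubation with enzyme, 25 min cleavage at room temperature; signal: AMC fluorescence from Ub-AMC cleavage, excitation 355 nm, emission 460 nm; buffer or medium: Tris-HCl pH 7.4 plus ovalbumin, ATP-MgCl2, DTT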
# * = called active by the depositor; i = inactive; ? = inconclusive; · = not tested or not shown; & = joins results of further samples.
SMILES,FGF22 binding,MLL AF4-AF9 inh,E coli growth,Vif TR-FRET,RanGTP-Impb inh,HNF4A DNA FP,UCH37 inh
CC(C)C(NS(=O)(=O)c1ccc2c(c1)OCCO2)C(=O)NCCc1ccccn1 (stereo unspecified),·,·,0.71,-4%,?,0.9,1.8
Cc1ccc(S(=O)(=O)c2nc(-c3ccco3)oc2SCC(=O)NCC2CCCO2)cc1 (stereo unspecified),·,·,0.68,8%,-1.7,3.3,1.3
Cc1ccccc1NC(=O)Cn1nnc2c(cnn2-c2ccc(F)cc2)c1=O,i,-4.8,0.67,27%,0.0,3.5,-53
COc1ccc2c(CN3CCN(C(C)=O)CC3)cc(=O)oc2c1,i,-1.0,·,·,·,-3.6,·
COc1cc2c(cc1OC)C(C(=O)O)C(c1ccc(C)o1)N(C)C2=O (stereo unspecified),·,·,0.75,-4%,-0.2,-0.1,-1.8
COc1ccc(CNc2ccccc2SC)cc1OC,i,6.0,0.7,4%,-0.8,1.7,-0.5
C=CCn1cc(C(=O)NCc2cccnc2)c(=O)c2cc(S(=O)(=O)N(CC)CC)ccc21,i,0.7,0.67,-2%&-1%,5.3,2.8,2.2
COc1ccc(CNC(=O)CCCn2nc(C)c3c(C)n(-c4ccc(C)cc4)nc3c2=O)cc1,i,0.4,0.71,·,1.5,0.5,2.4
CCOc1ccc(NC(=O)CSc2nc3nc(C)cc(C)n3n2)cc1,i,-1.4,0.66,4%,7.1,-1.6,2.1
COc1ccc(C(=O)N2CCN(c3nc4ccccc4o3)CC2)cc1OC,i,0.0,0.67,-2%,1.5,1.6,1.9

# The list goes on (4 carried over from the part before).
SMILES,FGF22 binding,MLL AF4-AF9 inh,E coli growth,Vif TR-FRET,RanGTP-Impb inh,HNF4A DNA FP,UCH37 inh
C=CCn1cc(C(=O)NCc2cccnc2)c(=O)c2cc(S(=O)(=O)N(CC)CC)ccc21,i,0.7,0.67,-2%&-1%,5.3,2.8,2.2
COc1ccc(CNC(=O)CCCn2nc(C)c3c(C)n(-c4ccc(C)cc4)nc3c2=O)cc1,i,0.4,0.71,·,1.5,0.5,2.4
CCOc1ccc(NC(=O)CSc2nc3nc(C)cc(C)n3n2)cc1,i,-1.4,0.66,4%,7.1,-1.6,2.1
COc1ccc(C(=O)N2CCN(c3nc4ccccc4o3)CC2)cc1OC,i,0.0,0.67,-2%,1.5,1.6,1.9
N#CC1=C2Sc3ccccc3N2CCCC1=O,·,-3.3,0.7,7%,-1.9,0.1,5.4
c1ccc(C(Cc2nc(-c3cccnc3)no2)c2ccccc2)cc1,·,·,0.67,4%,-3.0,1.5,4.1
Cc1ccc2nsnc2c1NC(=O)c1ccc2c(c1)OCCO2,i,-79,0.69,-2%,-2.5,2.2,2.3
OCCN(CC#CC(O)(c1ccccc1)c1cccc(F)c1)CCO (stereo unspecified),i,-2.5,0.65,·,1.9,2.0,4.5
CN1CCCCc2c1nc1c(c2N)CCCC1,·,·,0.64,4%,2.1,-0.9,-7.9
COc1cc(NC(=S)N(C)C)c(OC)cc1Cl,i,-2.8,0.7,·,7.1,-3.4,4.0
S=C(NCc1ccc2[nH]c3c(c2c1)CCCC3)Nc1ccccc1,i,3.5,0.77,2%,3.6,-0.7,1.7
NS(=O)(=O)c1cccc(NC(=O)CCCNC(=O)c2ccc(Cl)cc2)c1,i,1.0,0.67,3%,-1.6,0.5,0.4
CC(C)(C)OC(=O)[C@H](CCCCN)NC(=O)c1nc[nH]c1C(=O)N[C@@H](CCCCN)C(=O)OC(C)(C)C,i,5.3,·,·,·,2.3,4.5
CC1CC(Nc2ccccc2)c2ccccc2N1C(=O)c1ccncc1 (stereo unspecified),i,-1.0,0.68,21%,·,0.3,-1.0
O=C(Cc1nn[nH]n1)c1ccccc1O,i,-12,0.73,0%,7.3,-0.6,5.9
CCOC(=O)c1c(C)n(C)c2ccc(OCC(O)CN3CCC(C)CC3)cc12 (stereo unspecified),i,1.9,0.75,-3%,-2.1,2.8,8.2
O=C1COc2ccc(C(=O)CSc3ccc(Br)cc3)cc2N1,i,2.7,0.7,-3%,·,2.1,3.9
CCOC(=O)C1CCCN(C(=O)CN(c2ccc(OC)cc2)S(=O)(=O)c2c(C)noc2C)C1 (stereo unspecified),i,-6.5,0.74,2%,-3.2,-2.0,2.9
COc1ccc(NC(=O)Cc2coc3ccc4ccccc4c23)cc1S(=O)(=O)N1CCOCC1,·,·,0.71,18%,5.0,-0.4,1.7
O=C(CSc1nnc(CNC(=O)c2ccco2)o1)c1ccc(Cl)cc1,·,·,0.73,-1%,-1.8,1.1,3.1
COC(=O)CNc1nc(OC)nc(N(C)C)n1,·,·,0.75,-2%,2.0,-0.4,0.4
COc1cc(NC(=O)c2ccco2)c(OC)cc1NC(=O)CSc1nnc(-c2cccs2)n1C,·,·,0.67,8%,-0.1,-3.0,-136
O=C(/C=C/c1ccccc1)NC1CC2CCC1C2 (stereo unspecified),·,·,0.72,·,-3.7,2.6,5.2
Cc1ccc(N(C(=O)Cn2nnc(-c3ccc(C)o3)n2)C(C(=O)NC2CCCC2)c2ccco2)cc1 (stereo unspecified),·,·,0.74,-6%&2%,1.8,-0.7,3.9
NC(CC(=O)O)c1cccc(OCc2ccccc2)c1 (stereo unspecified),·,·,0.78,28%,·,1.1,2.5
Cn1nc(-c2ccccc2)cc1NC(=O)C1CCCCC1,i,-3.3,0.65,6%,-0.3,0.4,-1.7
O=C(COC(=O)c1ccccc1O)NC1CCCc2ccccc21 (stereo unspecified),i,-0.1,0.68,·,·,1.0,-8.0
O=C(CC[C@H]1O[C@@H](n2ccc(=O)[nH]c2=O)[C@H](O)[C@@H]1O)N[C@H](Cc1ccccc1)C(=O)NCCCc1ccccc1,i,-4.1,·,·,·,10,·
CCOc1ccc(CCN2C(=S)N([C@@H](Cc3ccccc3)CN3CCC[C@@H]3CN3C(=S)NC[C@@H]3CC(C)C)C[C@@H]2Cc2ccccc2)cc1,i,2.9,·,·,·,-1.7,·
O=S(=O)(c1cc(F)ccc1F)N1CCN(c2ccccn2)CC1,i,-6.3,0.69,·,-2.1,2.1,3.3
O=C(CNC(=O)c1ccc(Cl)cc1)NC1CCCCC1,i,-6.7,0.73,·,3.8,-4.8,3.4
COc1ccc(-c2nnc(NC(=O)c3ccccc3C)o2)cc1,i,2.6,0.79,·,5.9,5.1,4.4
Cc1ccc(C)c(NC(=O)CN(C)C(=O)c2ccc3c(=O)n4c(nc3c2)CCC4)c1,i,-1.8,0.65,-6%,·,-0.6,-1.7
CCC1CN(C(=O)N2CCC(C(=O)NCCc3ccccc3)CC2)c2ccccc2O1 (stereo unspecified),i,-0.4,0.7,4%,-0.6,2.5,1.2
CCOC(=O)C1(CC2CC2)CCN(C(=O)c2ocnc2C)CC1,i,-5.5,0.69,1%,-1.2,-1.5,2.6
Cc1cc(C)cc(C(=O)NC(CC(N)=O)c2ccc(N3CCCCCC3)c([N+](=O)[O-])c2)c1 (stereo unspecified),i,1.4,0.7,·,-2.2,5.0,1.7
CC(NC(=O)COC(=O)C1CSC2(C)CCC(=O)N12)C12CC3CC(CC(C3)C1)C2 (stereo unspecified),i,-0.9,0.7,5%,-2.5,-7.2,1.6
Cn1c(=O)[nH]c(=O)c2c1[nH]c(=S)n2CCCc1ccccc1,i,-1.7,0.71,·,3.5,3.6,5.9
O=C(CSc1ccc(-c2cccs2)nn1)N1CCCCCC1,·,·,0.67,·,1.1,-1.0,1.5
Cc1noc(C)c1COc1ccc(C(=O)Nc2ccccn2)cc1,i,0.6,0.71,1%,0.6,-4.7,0.9
C[C@H](O)[C@@H]1C(=O)N2CCc3c([nH]c4ccccc34)[C@@H]2C[C@@H]1N(C)C(=O)c1cc(Cl)cc(Cl)c1,i,-2.0,·,·,·,1.9,·
Cc1ccc(S(=O)(=O)CC(=O)Nc2ccc(S(=O)(=O)Nc3ccccn3)cc2)cc1,i,-0.2,0.65,1%,?,4.1,-4.8
CCc1nc(SCc2ccc(C(=O)OC)o2)n[nH]1,i,-2.4,0.65,29%,1.0,-3.3,-0.1
CSc1nnc(C(C)(C)C)c(=O)n1/N=C/c1ccc(Cl)cc1,i,·,·,-2%,0.3,2.3,·
S=c1sc2c(Cl)ncnc2n1-c1ccccc1,i,3.2,0.68,-8%,-2.5,-2.0,8.1
CN(C(=O)c1ccccc1-c1ncc[nH]1)C1CCCN(Cc2ccccc2F)C1 (stereo unspecified),i,-0.3,0.69,·,-0.4,-4.3,0.6
O=C(COC(=O)c1cc(=O)[nH]c2ccccc12)Nc1ccc(F)cc1,i,-2.2,0.72,-2%,·,4.0,-16
Cc1nc(C(C)NC(=O)CCc2nnc(-c3ccsc3)o2)cs1 (stereo unspecified),i,-6.6,0.68,12%,6.3,2.4,4.8
CCOC(=O)C(CC)/C(C)=N\NC(=O)c1cccc(C)c1 (stereo unspecified),i,-0.1,·,2%,-0.1,0.7,·
Cn1c(S(=O)(=O)O)nc2ccccc21,i,-0.1,0.69,0%,-0.5,5.8,0.9
Cc1ccc(C(=O)N2[C@@H]3CN(C)C(=O)[C@@]2(C)[C@H]2C(=O)N(Cc4ccccc4)C(=O)[C@@H]32)cc1,i,-1.6,·,·,·,3.0,1.3
CCOC(=O)c1c(NC(=O)COC(=O)CCOc2ccc(C)cc2)sc(C(=O)N(C)C)c1C,i,-6.5,0.69,·,·,4.7,1.8
Cc1ccc(Oc2ncccc2CO)cc1,i,-1.3,0.69,-12%,3.8,3.8,1.3
CCCN1C(=O)/C(=C\C=C2/Sc3ccccc3N2CC)SC1=S,·,·,0.66,2%,-3.1,·,1.3

# Additional results.
SMILES,FGF22 binding,MLL AF4-AF9 inh,E coli growth,Vif TR-FRET,RanGTP-Impb inh,HNF4A DNA FP,UCH37 inh
Cc1csc(/N=C/N(C)C)c1C#N,i,1.0,·,-10%,-1.6,1.2,·
CCOC(=O)C1=CCC2C(=O)N(C)C(=O)C12 (stereo unspecified),i,-2.5,·,·,·,0.4,·
Cc1ccc(-c2nn(-c3ccc(F)cc3)cc2C(=O)NC2CCC(O)CC2)cc1 (stereo unspecified),·,-1.0,0.64,-7%,1.5,-3.8,1.6
CC(C)C(=O)NS(=O)(=O)c1ccc(N)cc1,·,·,0.71,-5%,-2.1,-1.1,-1.1
O=C1OC(Nc2ccc(Br)cn2)c2ccccc21 (stereo unspecified),·,·,0.73,0%,·,4.2,0.6
CC(=O)N1CCN(C2=NC(=O)/C(=C\c3cccs3)S2)CC1,i,-4.5,0.64,·,0.8,2.5,9.4
Cc1[nH]c(C)c(S(=O)(=O)N2CCN(c3ccccc3F)CC2)c1C(=O)N1CCCCC1,i,-7.6,0.68,1%,1.6,-2.7,1.9
CC1CCCCN1CCNC(=O)c1ccc2c(=O)n(Cc3ccc(Cl)cc3)c(=S)[nH]c2c1 (stereo unspecified),i,8.8,0.61,2%,0.4,9.9,1.2
CC(C)C(=O)Nc1ccc2c(c1)nc1n2CCSC1,·,·,0.66,-2%,4.3,-1.1,1.0
O=C(COc1ccccc1)Nc1nnc(S(=O)(=O)Nc2ccccc2)s1,i,4.3,0.72,·,6.6,0.3,6.3
CCCOc1ccc(NC(=O)OC2CCN(C)CC2)cc1,·,·,0.65,-1%,-3.4,-1.9,0.9
C[C@H](NC(=O)c1nc[nH]c1C(=O)N[C@@H](Cc1ccccc1)C(=O)OC(C)(C)C)C(=O)OC(C)(C)C,i,11,·,0%,-4.0,-2.0,1.6
COc1cc(O)c(C(=O)O)c(CCc2ccccc2)c1,i,-0.4,0.67,0%,·,-2.0,2.3

# This is a subset (hit frequency here may not be typical).
